GSTO1 inh: inhibitors of recombinant GSTO1, primary screen, counter-screen for RBBP9 inhibitor project, biochemical, fluorescence polarization; hit rate 1.1% among 300,000; inhibition, % at 5.96 µM; AID 1974, 2009; activity-based probe fluorescence polarization;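 active = inhibition above the campaign mean inhibition plus 3 SD, cut at about 35% in these data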;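 also: 0% = GSTO1-1 with DMSO and 100% = wells lacking GSTO1-1 enzyme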
Target sequence (P78417 whole entry, looked up): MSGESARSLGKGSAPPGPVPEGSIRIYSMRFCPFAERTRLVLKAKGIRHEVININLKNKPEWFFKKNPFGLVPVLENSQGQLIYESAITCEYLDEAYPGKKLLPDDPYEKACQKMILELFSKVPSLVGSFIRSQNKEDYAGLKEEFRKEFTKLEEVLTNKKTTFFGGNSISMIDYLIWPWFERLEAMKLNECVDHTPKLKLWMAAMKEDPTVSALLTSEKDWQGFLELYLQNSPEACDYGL
LYPLA1 inh: LYPLA1 inhibitors, primary screen, counter-screen for PME1 inhibitor project, biochemical, fluorescence polarization, FP-Rh probe ABPP. Acyl-protein thioesterase 1 (Homo sapiens), O75608. inhibition, % at 5.9 µM. AID 2174, 2009. recombinant LYPLA1. hit rate 0.16% among 320,000;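 active = inhibition above the mean of all tested compounds plus 3 SD, set per campaign, cut at about 14% in these data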;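 also: inhibitors block serine hydrolase probe labeling of LYPLA1 so polarization falls; 0% = enzyme with DMSO and 100% = wells lacking LYPLA1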
PAFAH1B2 FP inh: PAFAH1B2 enzyme inhibitors, primary screen, biochemical, fluorescence polarization, human. Platelet-activating factor acetylhydrolase IB subunit alpha2 (Homo sapiens), P68402. recombinant PAFAH1B2, FP-rhodamine activity probe. inhibition, % at 3.39 µM. hit rate 1.2% among 340,000. AID 492953, 2010;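 active = inhibition above the mean of all tested compounds plus 3 SD, cut at about 24% in these data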;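 also: 0% = enzyme with DMSO and 100% = wells lacking PAFAH1B2; many of its hits are not listed in these tables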
PAD4 inh: human PAD4 inhibitors, primary screen, biochemical, fluorescence polarization, 1536-well format. Protein-arginine deiminase type-4 (Homo sapiens), Q9UM07. recombinant PAD4, RCA probe fluorescence polarization. inhibition, % at 6.36 µM. hit rate 0.41% among 330,000. AID 485272, 2010;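 active = percent inhibition above a cutoff equal to the mean of all tested compounds plus 3 SD, cut at about 15% in these data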;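 also: 0% = PAD4 with RCA probe and DMSO and 100% = probe without PAD4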
Target sequence (Q9UM07 whole entry, looked up): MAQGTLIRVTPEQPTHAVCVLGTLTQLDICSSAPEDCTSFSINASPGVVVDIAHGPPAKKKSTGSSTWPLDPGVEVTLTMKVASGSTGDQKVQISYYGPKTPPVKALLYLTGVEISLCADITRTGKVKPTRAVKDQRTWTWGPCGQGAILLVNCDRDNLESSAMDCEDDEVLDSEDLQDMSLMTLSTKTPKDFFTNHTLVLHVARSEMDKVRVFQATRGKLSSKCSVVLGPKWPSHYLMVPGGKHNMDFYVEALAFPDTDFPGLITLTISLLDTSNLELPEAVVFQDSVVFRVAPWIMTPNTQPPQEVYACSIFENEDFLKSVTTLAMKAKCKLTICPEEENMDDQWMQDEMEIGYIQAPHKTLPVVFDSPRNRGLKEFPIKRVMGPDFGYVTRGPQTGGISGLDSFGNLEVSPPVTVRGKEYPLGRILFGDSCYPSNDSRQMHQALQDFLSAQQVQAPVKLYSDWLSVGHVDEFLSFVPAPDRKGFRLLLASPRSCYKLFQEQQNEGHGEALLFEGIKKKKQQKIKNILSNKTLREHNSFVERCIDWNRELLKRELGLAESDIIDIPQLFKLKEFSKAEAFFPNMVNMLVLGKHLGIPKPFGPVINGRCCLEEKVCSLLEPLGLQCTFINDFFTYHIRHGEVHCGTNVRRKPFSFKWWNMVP
LYPLA2 counter: LYPLA2 inhibitors, primary screen, counter-screen for PME1 inhibitor project, biochemical, fluorescence polarization, FP-Rh probe ABPP. Acyl-protein thioesterase 2 (Homo sapiens), O95372. recombinant LYPLA2. inhibition, % at 5.9 µM. hit rate 0.38% among 320,000;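 active = inhibition above the screen-wide mean plus 3 SD, limit set per campaign, cut at about 26% in these data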;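 also: 0% = LYPLA2 with DMSO and 100% = wells lacking LYPLA2 enzyme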
PREPL inhibitor: PREPL enzyme inhibitors, primary screen, biochemical, fluorescence polarization; inhibition, % at 5.96 µM; hit rate 0.68% among 320,000; recombinant PREPL, fluorescence polarization activity-based probe; Prolyl endopeptidase-like (Homo sapiens), Q4J6C6; in the data active = inhibition above about 43%;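 also: 0% = enzyme with DMSO and 100% = wells lacking enzyme; many of its hits are not listed in these tables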
pPAFAH FP inh: pPAFAH enzyme inhibitors, primary screen, biochemical, fluorescence polarization, human; hit rate 1.5% among 330,000; Platelet-activating factor acetylhydrolase (Homo sapiens), Q13093; inhibition, % at 3.39 µM; recombinant pPAFAH, FP-rhodamine probe fluorescence polarization; AID 463082, 2010;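 active = inhibition above the mean inhibition across the screen plus 3 SD, cut at about 25% in these data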;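 also: inhibitors block binding of the rhodamine activity-based probe so polarization drops; 0% = enzyme with DMSO and 100% = wells lacking pPAFAH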
PAFAH1B3 inh: PAFAH1B3 enzyme inhibitors, primary screen, biochemical, fluorescence polarization, human. recombinant PAFAH1B3, FP-rhodamine probe. Platelet-activating factor acetylhydrolase IB subunit alpha1 (Homo sapiens), Q15102. inhibition, % at 3.39 µM. hit rate 0.28% among 340,000. AID 492972, 2010;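 active = inhibition above the screen-wide average of all tested compounds plus 3 SD, cut at about 25% in these data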;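 also: 0% = enzyme with DMSO only and 100% = wells lacking PAFAH1B3 protein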
Starred values were filed as active, the others as inactive; · = not tested or not shown. An excerpt; the hit share may differ from the screen's.

(1) O=C(O)c1ccc2nc3c(nc2c1)-c1ccccc1C3=O
(2) COc1cccc(NS(=O)(=O)c2cc(C)sc2C)c1
(3) CC(NC(=O)COC(=O)COc1ccc(C(=O)c2ccccc2)cc1)c1ccccc1 (stereo not given)
(4) CCN(CC)S(=O)(=O)c1ccc(Cl)c(NC(=O)COC(=O)c2c(C)noc2C)c1
(5) O=S(=O)(NCc1ccccc1)c1ccc(-c2cnc(C3CC3)o2)cc1
(6) Cc1noc(C)c1COC(=O)c1cccc(S(=O)(=O)N2CCCCCC2)c1
(7) CCOc1ccccc1CNS(=O)(=O)c1ccc(-c2cnc(C3CC3)o2)cc1
(8) Cc1c(/C=N/NC(N)=O)c2ccccn2c1C(=O)c1ccc(F)cc1

assay / compound,1,2,3,4,5,6,7,8
GSTO1 inh,-14,-1,·,3,-3,0,-6,2
LYPLA1 inh,-3,0,5,0,0,-1,1,6
PAFAH1B2 FP inh,1,4,8,-5,7,5,1,2
PAD4 inh,-10,2,0,-1,-3,1,-3,4
LYPLA2 counter,1,0,6,-2,5,3,-10,8
PREPL inhibitor,-2,8,19,4,-7,-8,-9,36
pPAFAH FP inh,2,3,11,7,8,2,4,10
PAFAH1B3 inh,11,7,6,1,7,5,-5,5

(9) CCC(C)c1ccccc1NC(=O)COC(=O)c1ccc2c(c1)S(=O)(=O)c1ccccc1C2=O (stereo not given)
(10) COc1ccc(NC(=O)Nc2cccc3cccnc23)cc1
(11) Cc1ccccc1C1C(C#N)=C2N=C(N)c3ccccc3N2C2=C1C(=O)CCC2 (stereo not given)
(12) Cn1nc(-c2ccccc2)c2nc3ccccc3nc21
(13) COc1cccc(NC(=O)COC(=O)c2c(F)cccc2F)c1
(14) COc1ccc(-c2nc(CSCC(=O)NC3CCCc4ccccc43)c(C)o2)cc1OC (stereo not given)
(15) CC(C)C[C@H](NC(=O)c1[nH]cnc1C(=O)N[C@@H](C)C(=O)OCc1ccccc1)C(=O)OC(C)(C)C
(16) Cc1nnc2ccc(-c3cccc(NS(=O)(=O)c4ccccc4[N+](=O)[O-])c3)nn12

assay / compound,9,10,11,12,13,14,15,16
GSTO1 inh,2,-1,-3,6,-1,-4,1,-6
LYPLA1 inh,-7,-2,-1,-2,4,-1,-1,0
PAFAH1B2 FP inh,-3,-2,2,-1,6,4,5,4
PAD4 inh,-5,-2,-1,0,2,4,3,-5
LYPLA2 counter,3,-1,0,-4,15,-3,-2,-5
PREPL inhibitor,7,8,23,-7,19,-10,1,20
pPAFAH FP inh,22,6,6,0,4,1,15,-2
PAFAH1B3 inh,5,-4,4,4,7,6,8,8

(17) Cc1sc2ncnc(OCC(=O)N3CCN(S(=O)(=O)c4ccccc4)CC3)c2c1C
(18) Cc1cccc(/C=C2\Sc3ccc(C(=O)N4CCCCC4)cc3N(C)C2=O)c1
(19) CS(=O)(=O)N1CCc2cc(S(=O)(=O)N3CCN(Cc4ccc5c(c4)OCO5)CC3)ccc21
(20) O=C(CSCCN1C(=O)c2ccccc2C1=O)Nc1ccc2ccccc2c1
(21) Cc1cc(=O)oc(C)c1C(=O)N[C@@H]1CCCCNC1=O
(22) O=c1cc(O)c2ccccc2n1Cc1ccccc1
(23) Cc1ccc2[nH]c(=O)c(C(c3nnnn3Cc3ccccc3)N3CCc4ccccc43)cc2c1 (stereo not given)
(24) CCOc1ccc(S(=O)(=O)Nc2ccccc2C(=O)N2CCCC2)cc1

assay / compound,17,18,19,20,21,22,23,24
GSTO1 inh,6,-12,2,3,6,14,5,-9
LYPLA1 inh,-1,-2,4,-2,-6,-2,-5,1
PAFAH1B2 FP inh,4,4,0,6,4,2,9,14
PAD4 inh,-1,-4,-4,-8,-1,-6,-11,1
LYPLA2 counter,2,18,13,-1,-3,-8,-3,1
PREPL inhibitor,13,5,23,-118,-1,3,0,3
pPAFAH FP inh,-2,12,10,5,3,1,9,2
PAFAH1B3 inh,2,0,6,-3,9,3,4,3

(25) CCN1CCN(c2cc(-c3ccccc3)nc3cc(-c4cccc(F)c4)nn23)CC1
(26) O=C(NC1CCC(O)CC1)c1cccnc1Sc1ccccc1Cl (stereo not given)
(27) Cc1ccc2cc(C(c3nnnn3Cc3ccccc3)N3CCc4ccccc43)c(=O)[nH]c2c1C (stereo not given)
(28) CC(C)(C)NC(=O)CN(C(=O)CCN1CCCc2ccccc21)C(C)(C)C
(29) C=C(C)Cn1c(C2CC(=O)N(Cc3ccccc3)C2)nc2ccccc21 (stereo not given)
(30) COc1ccccc1N1C(=O)N(CC(=O)C(C)(C)C)c2ccccc2S1(=O)=O
(31) O=[N+]([O-])c1ccc(Cl)c(S(=O)(=O)Nc2cccc(-c3ccc(N4CCOCC4)nn3)c2)c1
(32) CCCCC(=O)Nc1ccc(C(=O)NCCCn2ccnc2)cc1

assay / compound,25,26,27,28,29,30,31,32
GSTO1 inh,-14,1,-9,7,1,-3,2,-10
LYPLA1 inh,-7,-3,-7,-2,0,0,2,-3
PAFAH1B2 FP inh,2,3,-2,-1,-1,6,3,-1
PAD4 inh,1,-3,-5,-3,0,-3,1,1
LYPLA2 counter,-17,-1,-12,2,3,2,-1,1
PREPL inhibitor,11,-3,-8,24,6,13,-15,3
pPAFAH FP inh,1,2,6,3,-1,1,9,6
PAFAH1B3 inh,-10,5,-5,10,0,2,4,3

Three records picked at random from the list so far, as already listed:
(28) CC(C)(C)NC(=O)CN(C(=O)CCN1CCCc2ccccc21)C(C)(C)C
(32) CCCCC(=O)Nc1ccc(C(=O)NCCCn2ccnc2)cc1
(25) CCN1CCN(c2cc(-c3ccccc3)nc3cc(-c4cccc(F)c4)nn23)CC1

assay / compound,28,32,25
GSTO1 inh,7,-10,-14
LYPLA1 inh,-2,-3,-7
PAFAH1B2 FP inh,-1,-1,2
PAD4 inh,-3,1,1
LYPLA2 counter,2,1,-17
PREPL inhibitor,24,3,11
pPAFAH FP inh,3,6,1
PAFAH1B3 inh,10,3,-10

(further entries)
(33) COc1ccccc1CNC(=O)C1CCN(S(=O)(=O)c2cccc3cccnc23)CC1
(34) COc1cccc(CNC(=O)Cc2ccc(-n3c(=O)[nH]c4ccccc4c3=O)cc2)c1
(35) O=C(NC1CCCCC1)C(c1ccc(F)cc1)N(C(=O)c1cccs1)c1ccc2c(c1)OCO2 (stereo not given)
(36) CNc1c(NS(=O)(=O)c2ccc(Cl)s2)c(=O)oc2ccccc12
(37) COc1ccccc1CNCC(=O)Nc1cc(S(=O)(=O)N2CCCCCC2)ccc1Cl
(38) COc1ccc(/C=C/C2=Nc3ccccc3NC(C)(C)C2)cc1OC
(39) CCc1ccc2[nH]c(=O)c(C(c3nnnn3CCOC)N3CCN(c4ccc(F)cc4)CC3)cc2c1 (stereo not given)
(40) COc1ccc(-c2csc3nc(-c4ccccc4F)oc(=O)c23)cc1OC

assay / compound,33,34,35,36,37,38,39,40
GSTO1 inh,3,0,2,4,-5,-1,-4,-12
LYPLA1 inh,0,-2,-2,3,-1,3,0,-5
PAFAH1B2 FP inh,4,0,3,-3,0,4,7,-5
PAD4 inh,-3,1,0,-2,-3,-3,-1,14
LYPLA2 counter,1,-3,0,0,-5,-1,2,-5
PREPL inhibitor,1,-1,12,-17,4,3,16,26
pPAFAH FP inh,-1,4,-1,-3,4,3,4,0
PAFAH1B3 inh,6,4,7,3,-3,9,6,0

Some of the entries so far, with two lines to a compound:
Results follow in this order: GSTO1 inh | LYPLA1 inh | PAFAH1B2 FP inh | PAD4 inh | LYPLA2 counter | PREPL inhibitor | pPAFAH FP inh | PAFAH1B3 inh
#23 Cc1ccc2[nH]c(=O)c(C(c3nnnn3Cc3ccccc3)N3CCc4ccccc43)cc2c1 (stereo not given)
→ 5 | -5 | 9 | -11 | -3 | 0 | 9 | 4
#24 CCOc1ccc(S(=O)(=O)Nc2ccccc2C(=O)N2CCCC2)cc1
→ -9 | 1 | 14 | 1 | 1 | 3 | 2 | 3
#25 CCN1CCN(c2cc(-c3ccccc3)nc3cc(-c4cccc(F)c4)nn23)CC1
→ -14 | -7 | 2 | 1 | -17 | 11 | 1 | -10

Whole records, quoted from the list. Values in the order: GSTO1 inh	LYPLA1 inh	PAFAH1B2 FP inh	PAD4 inh	LYPLA2 counter	PREPL inhibitor	pPAFAH FP inh	PAFAH1B3 inh
COc1ccc(-c2csc3nc(-c4ccccc4F)oc(=O)c23)cc1OC is listed with -12	-5	-5	14	-5	26	0	0
COc1ccccc1CNCC(=O)Nc1cc(S(=O)(=O)N2CCCCCC2)ccc1Cl is listed with -5	-1	0	-3	-5	4	4	-3
O=C(NC1CCCCC1)C(c1ccc(F)cc1)N(C(=O)c1cccs1)c1ccc2c(c1)OCO2 (stereo not given) is listed with 2	-2	3	0	0	12	-1	7
COc1ccc(/C=C/C2=Nc3ccccc3NC(C)(C)C2)cc1OC is listed with -1	3	4	-3	-1	3	3	9

(listing goes on)
(41) N#Cc1c(NC(=S)NC(=O)c2ccccc2)sc2c1CCN(CCc1ccccc1)C2
(42) CCN(CC)CCn1c(NS(=O)(=O)c2ccc(Cl)cc2)nc2ccccc21
(43) N#CC1=C2N=C(N)c3ccccc3N2C2=C(C(=O)CCC2)C1c1cccc(Cl)c1 (stereo not given)
(44) Cc1[nH]c2ccccc2c1/C=N/NC(=S)NCc1ccccc1
(45) Cc1ccc(S(=O)(=O)N(C)C)cc1NC(=O)CN1c2cccc3cccc(c23)S1(=O)=O
(46) O=C(Cn1cnc(S(=O)(=O)N2CCCCC2)c1)NCc1ccco1
(47) COc1ccc(C)cc1NS(=O)(=O)c1ccc(-c2cnc(C3CC3)o2)cc1
(48) C#CCOC(=O)Nc1ccc(=O)n(Cc2c(Cl)cccc2Cl)c1

assay / compound,41,42,43,44,45,46,47,48
GSTO1 inh,-1,6,1,-3,·,0,-6,-3
LYPLA1 inh,-3,2,3,-10,-2,-1,0,-4
PAFAH1B2 FP inh,·,6,-3,8,5,3,-2,-1
PAD4 inh,-30,2,2,6,-2,0,1,1
LYPLA2 counter,4,9,2,-3,0,1,5,1
PREPL inhibitor,65*,3,20,22,6,-2,5,-17
pPAFAH FP inh,13,1,4,10,6,3,5,4
PAFAH1B3 inh,·,8,2,22,3,0,3,0
